Calb biofilm kill: clotrimazole potentiators killing C. albicans biofilm, primary screen, 4-compound mixtures; 0.02% of 120,000 active; C. albicans biofilm persisters + clotrimazole, fluorescence viability; primary screen in compound mixtures of four per well; inhibition, % at 7.6 µM;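 active means inhibition above 30.3% in the primary screen of four-compound pools, then above 30% when the compound was retested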;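 further: compounds exposed to preformed 24 h biofilms for 48 h; the number belongs to the whole pool; some results filed as inactive read as strong as hits; inactives centre near 12; 0% = biofilm with clotrimazole alone and 100% = kill control; retested singly at about 60 µM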
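Assay system: C. albicans biofilms / Medium: RPMI/MOPS medium, pH 7.0 / Schedule: biofilm formation 24 h, compound exposure 48 h, 37 °C / Measured by: Alamar Blue fluorescence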
The depositor's hits bear a star. Not all compounds are listed; rates above refer to the full screens.

What do the screens show for `CCCCC1=C([O-])C2N=CC=CC2=[N+](c2ccccn2)C1=O` (stereo not drawn)?
Calb biofilm kill: 16.8

What do the screens show for `CCCn1c(N/N=C\C=C\c2ccccc2)nc2c1c(=O)[nH]c(=O)n2C`?
Calb biofilm kill: 6.0

How did Cc1ccc(S(=O)(=O)NN2C(=O)/C(=C/c3cccn3C)SC2=S)cc1 do in these assays?
Calb biofilm kill: 7.8

What do the screens show for `O=C(c1ccco1)N1CCN(S(=O)(=O)c2ccccc2[N+](=O)[O-])CC1`?
Calb biofilm kill: 14.3

What do the screens show for `O=C(CCl)Nc1cc(S(=O)(=O)N2CCCCCC2)ccc1Cl`?
Calb biofilm kill: 21.7

How did C/C(CC(=O)Nc1cc(C)ccn1)=N\NC(=O)c1cccc(C)c1 do in these assays?
Calb biofilm kill: -1.0

Results for COc1ccc(S(=O)(=O)N2CCOCC2)cc1NC(=O)CSc1n[nH]c(C(C)C)n1 ?
Calb biofilm kill: 10.3

Results for Cc1ccc(C(=O)N2C(CC(=O)Nc3ccc(Cl)cc3)C(=O)NC3CCCCC32)cc1 (stereo not drawn) ?
Calb biofilm kill: 2.8

How did COc1ccccc1CN=C1Nc2ccccc2CS1 do in these assays?
Calb biofilm kill: 18.8

What do the screens show for `O=C1N=c2ccccc2=C1c1sc(=O)[nH]c1O`?
Calb biofilm kill: 7.7

Results for O=C(Nc1ccc(NC(=O)c2ccco2)c(Cl)c1)c1cccc([N+](=O)[O-])c1 ?
Calb biofilm kill: 9.2

How did O=C(Nc1ccc(Cl)cc1Cl)NC1CCN(S(=O)(=O)c2ccc(F)cc2)CC1 do in these assays?
Calb biofilm kill: 14.4

What do the screens show for `O=C(Oc1ccccc1)c1ccc2nsnc2c1`?
Calb biofilm kill: 9.1

What do the screens show for `Cc1c(NC(=O)CN2C(=O)c3ccc([N+](=O)[O-])cc3C2=O)c(=O)n(-c2ccccc2)n1C`?
Calb biofilm kill: 13.0

Results for CCN(CC)C(=O)c1sc2nc(-c3cccs3)cc(-c3cccs3)c2c1N ?
Calb biofilm kill: 21.9

What do the screens show for `CCCOc1ccc(Cc2c(Cl)nc(SC)nc2N(C)C)cc1`?
Calb biofilm kill: 12.6

Results for OC(CON=C1c2ccccc2-c2ccccc21)CN1CCNCC1 (stereo not drawn) ?
Calb biofilm kill: 7.5

Results for O=C(O)CC1(CC(=O)Nc2ccc(Br)cc2)CCCCC1 ?
Calb biofilm kill: 9.1

How did CCOc1cc(C2C(C#N)=C(N)OC3=C2C(=O)CC(C)(C)C3)cc([N+](=O)[O-])c1O (stereo not drawn) do in these assays?
Calb biofilm kill: 19.4

How did N#CC(c1ccc(O)cc1)N1CCOCC1 (stereo not drawn) do in these assays?
Calb biofilm kill: 13.0

Results for CC(C)OC(=O)c1c(NC(=O)CCC(=O)O)sc2c1CCCCC2 ?
Calb biofilm kill: 14.0

How did COc1ccc(C(=O)Nc2ccc(O)c3c(=O)cc(-c4cccc(Cl)c4)oc23)cc1 do in these assays?
Calb biofilm kill: 22.3

Results for CCOC(=O)C(Oc1ccc2c(-c3ccccc3)cc(=O)oc2c1C)c1ccccc1 (stereo not drawn) ?
Calb biofilm kill: 14.5

What do the screens show for `O=C(CC1C(=O)NCCN1C(=O)Nc1ccc(F)cc1)Nc1cc(Cl)ccc1Cl` (stereo not drawn)?
Calb biofilm kill: -4.0

What do the screens show for `NNc1ncnc2scc(-c3ccc(Cl)cc3)c12`?
Calb biofilm kill: 11.2

How did C=CCN1C=CC(=C/C=C(/C#N)C(=O)OCC)C=C1 do in these assays?
Calb biofilm kill: 13.3

Results for CCC(=O)Nc1cc(OC)cc(OC)c1 ?
Calb biofilm kill: 9.5

How did COc1ccc(OCCCNCCc2ccccc2)cc1 do in these assays?
Calb biofilm kill: -7.3

What do the screens show for `CCC(C)c1ccc(NC(=S)NC2CCN(Cc3ccccc3)CC2)cc1` (stereo not drawn)?
Calb biofilm kill: 11.9

How did O=C(NCCc1ccccc1)/C(=C\c1ccc([N+](=O)[O-])cc1)NC(=O)c1ccc(Br)cc1 do in these assays?
Calb biofilm kill: 15.2

How did CN1CCN(CC(O)(c2ccc(Cl)cc2)c2ccc(Cl)cc2)CC1 do in these assays?
Calb biofilm kill: 19.0

How did CC(=O)Nc1ncc(Cc2cc(Cl)ccc2Cl)s1 do in these assays?
Calb biofilm kill: -11.8

What do the screens show for `COc1ccc(OC)c(/C=N/NC(=O)CN2CCSCC2)c1`?
Calb biofilm kill: 20.2

Results for Cc1ccc(-c2csc(NC(=O)/C=C/c3ccco3)c2C(=O)O)cc1 ?
Calb biofilm kill: 6.5

Results for COc1ccc(CC(=O)Nc2ccccc2C(=O)N2CCOCC2)cc1OC ?
Calb biofilm kill: 5.2

How did O=C(CCSCCc1ccccn1)Nc1ccc(Br)cc1F do in these assays?
Calb biofilm kill: 22.5

What do the screens show for `O=C(CCn1c(=S)oc2ccccc21)Nc1cccc(F)c1`?
Calb biofilm kill: -1.4

What do the screens show for `CCCCN1C(=O)C(O)(CC(=O)c2ccccc2OC)c2ccccc21` (stereo not drawn)?
Calb biofilm kill: 11.9

Results for Cc1ccc(C(=O)N/C(=C/c2cn(-c3ccccc3)nc2-c2ccccc2)C(=O)O)cc1 ?
Calb biofilm kill: 10.2

How did Cc1c(CN2CCC(CO)(CCOc3ccccc3)CC2)[nH]c2ccc(Cl)cc12 do in these assays?
Calb biofilm kill: 7.6

How did CC(=O)c1ccc(NC(=O)c2ccc(CNc3c(N4CCOCC4)c(=O)c3=O)cc2)cc1 do in these assays?
Calb biofilm kill: 19.9

What do the screens show for `Cc1ccc(S(=O)(=O)N(C(=O)c2ccncc2)c2ccc(OC(=O)c3ccncc3)cc2)cc1`?
Calb biofilm kill: 16.7

How did CCOc1ccc(/C(O)=C2/C(=O)C(=O)N(CCN(CC)CC)C2c2ccco2)cc1 (stereo not drawn) do in these assays?
Calb biofilm kill: 8.8

What do the screens show for `Cc1ccc(/C=C/C(=O)N2CCN(c3ncccn3)CC2)o1`?
Calb biofilm kill: 15.7

What do the screens show for `O=C(c1ccc(COc2ccc(F)cc2)o1)n1cc(Br)cn1`?
Calb biofilm kill: 11.5

Results for CN(C)S(=O)(=O)c1ccc(NC(=O)CSc2n[nH]c(=O)n2C2CC2)cc1 ?
Calb biofilm kill: 14.7

How did CC(C)NCc1cccc([N+](=O)[O-])c1 do in these assays?
Calb biofilm kill: -0.6

What do the screens show for `CN1C(=O)C(C(=O)Nc2ccccc2F)c2ccccc21` (stereo not drawn)?
Calb biofilm kill: 1.1

What do the screens show for `CCCCNC(=S)Nc1cc(S(=O)(=O)N2CCCCC2)ccc1C`?
Calb biofilm kill: 27.0

Results for O=C(/C=C/c1ccc(Cl)cc1)Nc1nccs1 ?
Calb biofilm kill: 16.5

Results for O=C(COC(=O)c1ccccc1C(=O)c1ccccc1)NCc1ccc(F)cc1 ?
Calb biofilm kill: 12.3

How did Cc1ccc(S(=O)(=O)NN2C(=O)/C(=C/c3ccccn3)SC2=S)cc1 do in these assays?
Calb biofilm kill: 14.7

Results for COc1ccc(-c2csc(NC(=O)c3ccco3)n2)cc1 ?
Calb biofilm kill: 17.4

What do the screens show for `CSc1nc(N)nc(N(C)C)n1`?
Calb biofilm kill: 14.4

How did CCC(=O)N1N=C(c2ccc(NS(C)(=O)=O)cc2)CC1c1ccc(N(C)C)cc1 (stereo not drawn) do in these assays?
Calb biofilm kill: 7.8

Results for O=C(N/N=C/c1ccc(O)cc1O)c1ccc(CN2C(=O)c3cccc4cccc2c34)cc1 ?
Calb biofilm kill: 17.6

How did CC(=O)c1ccc(OCC(C)C)c(Cc2c(O)nc(N)[nH]c2=O)c1 do in these assays?
Calb biofilm kill: 8.3

How did CCCC[n+]1ccc(-c2nc3ccc([N+](=O)[O-])cc3[nH]2)cc1 do in these assays?
Calb biofilm kill: -10.9

Results for COC(=O)N/N=C/c1cc(C)n(-c2ccccc2)c1C ?
Calb biofilm kill: 15.4

How did COc1ccccc1NC(=O)CCC(=O)N/N=C(/C)c1ccc(C)cc1 do in these assays?
Calb biofilm kill: 17.8

How did N#C/C(=C\c1ccccc1)c1ccccn1 do in these assays?
Calb biofilm kill: 12.9

What do the screens show for `S=C1NC2=C(CCCC2=C2SCCCS2)C(c2ccccc2)N1` (stereo not drawn)?
Calb biofilm kill: 2.9

Results for O=C(NCc1nc2ccccc2[nH]1)C1=C[C@@H](C2CCCCC2)C[C@@H](OCCCCO)O1 ?
Calb biofilm kill: 20.1

What do the screens show for `COc1ccccc1CCn1cc(C#N)c(=O)[nH]c1=O`?
Calb biofilm kill: 16.6

Results for O=C(c1ccc(S(=O)(=O)N2CCOCC2)cc1)N(c1ccccn1)C1CCCCC1 ?
Calb biofilm kill: 12.1

How did CSc1ccc(C#N)cc1NC(=O)c1ccc(Cl)nc1 do in these assays?
Calb biofilm kill: 10.8

What do the screens show for `C#CCOCCOCCOCCNc1nc(N2CCN(C(=O)[C@H](CCC(=O)O)n3cc(C(N)CO)nn3)CC2)nc(N2CCN(C(=O)[C@H](CCC(=O)O)n3cc(C(N)CC(C)C)nn3)CC2)n1` (stereo partly drawn)?
Calb biofilm kill: 1.4

How did O=C(O)CCC1(c2ccccc2)NC(=O)NC1=O (stereo not drawn) do in these assays?
Calb biofilm kill: 14.1

Results for Cc1c(Cl)c([N+](=O)[O-])nn1CCCC(=O)Nc1cc(Oc2ccccc2)cc([N+](=O)[O-])c1 ?
Calb biofilm kill: 18.2

Results for c1ccc2c(-c3cn4ccccc4n3)c[nH]c2c1 ?
Calb biofilm kill: 7.2

How did Cc1cc(Br)c(NC(=O)COC(=O)CSc2nnc(-c3ccc(Cl)cc3)o2)c(Br)c1 do in these assays?
Calb biofilm kill: 11.4

Results for COc1ccc2cc(C(=O)Nc3ccccc3)sc(=O)c2c1OC ?
Calb biofilm kill: 15.1

Ordered by molar mass (lowest first): part of the list above.
How did COc1ccccc1CN=C1Nc2ccccc2CS1 do in these assays?
Calb biofilm kill: 18.8

What do the screens show for `COc1ccc(OC)c(/C=N/NC(=O)CN2CCSCC2)c1`?
Calb biofilm kill: 20.2

How did CC(=O)c1ccc(OCC(C)C)c(Cc2c(O)nc(N)[nH]c2=O)c1 do in these assays?
Calb biofilm kill: 8.3

Results for OC(CON=C1c2ccccc2-c2ccccc21)CN1CCNCC1 (stereo not drawn) ?
Calb biofilm kill: 7.5

What do the screens show for `O=C(CCl)Nc1cc(S(=O)(=O)N2CCCCCC2)ccc1Cl`?
Calb biofilm kill: 21.7

How did O=C(CCSCCc1ccccn1)Nc1ccc(Br)cc1F do in these assays?
Calb biofilm kill: 22.5

Results for CCOC(=O)C(Oc1ccc2c(-c3ccccc3)cc(=O)oc2c1C)c1ccccc1 (stereo not drawn) ?
Calb biofilm kill: 14.5

How did COc1ccc(C(=O)Nc2ccc(O)c3c(=O)cc(-c4cccc(Cl)c4)oc23)cc1 do in these assays?
Calb biofilm kill: 22.3

Results for Cc1ccc(C(=O)N/C(=C/c2cn(-c3ccccc3)nc2-c2ccccc2)C(=O)O)cc1 ?
Calb biofilm kill: 10.2

Results for O=C(N/N=C/c1ccc(O)cc1O)c1ccc(CN2C(=O)c3cccc4cccc2c34)cc1 ?
Calb biofilm kill: 17.6

How did Cc1cc(Br)c(NC(=O)COC(=O)CSc2nnc(-c3ccc(Cl)cc3)o2)c(Br)c1 do in these assays?
Calb biofilm kill: 11.4

More records follow:
What do the screens show for `COc1ccc([N+](=O)[O-])cc1NC(=O)CCCOc1ccccc1`?
Calb biofilm kill: 0.9

What do the screens show for `COC(=O)c1ccccc1C(=O)N1CCOCCN(C(=O)c2ccccc2C(=O)OC)CCOCC1`?
Calb biofilm kill: 8.4

What do the screens show for `CC(=O)Nc1ccc(NC(=O)/C(=C/c2ccco2)NC(=O)c2ccccc2)cc1`?
Calb biofilm kill: 5.3

What do the screens show for `COc1ccc(CC(=O)c2ccc(OC)c(OC)c2)cc1`?
Calb biofilm kill: 1.1

Results for Cc1ccc(OCC(=O)c2cc(C)n(C3CC3)c2C)c([N+](=O)[O-])n1 ?
Calb biofilm kill: 14.4

What do the screens show for `COC(C[C@H]1O[C@H]1C(=O)COCc1ccccc1)OC`?
Calb biofilm kill: 14.1

What do the screens show for `COc1ccc(/C=C/C(=O)OCc2cc(=O)n3c(n2)sc2ccccc23)cc1`?
Calb biofilm kill: -8.8

What do the screens show for `Cc1cc(C)cc(N=c2c([N+](=O)[O-])nn(-c3ccc4c(c3)OCCO4)n2O)c1`?
Calb biofilm kill: 13.0

How did Cn1c(Cc2ccccc2)nnc1SCc1ccc(C(=O)O)cc1 do in these assays?
Calb biofilm kill: 16.4

Results for CC(=O)Nc1ccc(NC(=O)[C@@H]2CCCC[C@@H]2C(=O)O)cc1 ?
Calb biofilm kill: 8.0

What do the screens show for `Cc1cccc(/C=N/NC(=O)Cn2nc(C)cc2C)n1`?
Calb biofilm kill: 10.7

What do the screens show for `CC(=O)c1ccc(C(=O)N2CCC(CO)(Cc3cccc(C(F)(F)F)c3)CC2)cc1`?
Calb biofilm kill: 13.7

How did CC(CN(C)Cc1ccccc1)OC(=O)c1ccccc1F (stereo not drawn) do in these assays?
Calb biofilm kill: 11.0

How did CC(=O)c1ccc(OCCCC(=O)NC(C)c2ccc(S(N)(=O)=O)cc2)cc1 (stereo not drawn) do in these assays?
Calb biofilm kill: 16.6

How did COc1cccc(C(=O)OCCCN(C)C)c1 do in these assays?
Calb biofilm kill: 13.7

What do the screens show for `CCS(=O)(=O)N1N=C(c2cccc(NS(C)(=O)=O)c2)CC1c1ccc(C)cc1` (stereo not drawn)?
Calb biofilm kill: 14.1

What do the screens show for `Cc1ccccc1NC(=O)CN1C(=S)NC(C)(C)CC1C` (stereo not drawn)?
Calb biofilm kill: 7.3

Results for N#C/C(=N\Nc1ccc(F)cc1)C(=N)N1CCCCCC1 ?
Calb biofilm kill: 12.7

Results for O=C1NC(=Nc2ccccc2)S/C1=C/c1cccnc1 ?
Calb biofilm kill: 1.9

How did CCO[C@H]1OC(C(=O)N2CCN(Cc3ccccc3)CC2)=C[C@@H](c2ccccc2)[C@@H]1CCCO do in these assays?
Calb biofilm kill: 14.8

Screens from PubChem.
